# FGF22 binding: FGF22 (human) thermal shift binding. Q9HCT0. recombinant FGF22 thermal shift, SYPRO orange fluorescence; percent of sucrose octasulfate shift, DMSO zero. calls only at 9.99 µM. hit rate 1.5% among 340,000. AID 651658;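 active = melting point raised past a set limit in the mean and every replicate; three in four hits are not shown here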
# Target sequence (Q9HCT0 whole entry, looked up): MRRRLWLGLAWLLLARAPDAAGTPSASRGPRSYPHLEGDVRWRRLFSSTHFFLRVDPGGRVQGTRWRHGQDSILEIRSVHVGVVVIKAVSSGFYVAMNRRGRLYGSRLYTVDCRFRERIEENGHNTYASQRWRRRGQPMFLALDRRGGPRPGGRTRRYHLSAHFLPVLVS
# ALR inh: human ALR oxidase inhibition via reduced H2O2. inhibition, % (test concentration not listed). AID 485317. P55789. purified ALR, DTT oxidation, H2O2 HRP-luminol luminescence. hit rate 3.8% among 290,000;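 active = mean and each replicate at 75% or more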;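 also: stock transfer was 7.5 nL into about 7.5 µL; 0% = neutral wells and 100% = wells with inactivated enzyme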
# Target sequence (P55789 whole entry, looked up): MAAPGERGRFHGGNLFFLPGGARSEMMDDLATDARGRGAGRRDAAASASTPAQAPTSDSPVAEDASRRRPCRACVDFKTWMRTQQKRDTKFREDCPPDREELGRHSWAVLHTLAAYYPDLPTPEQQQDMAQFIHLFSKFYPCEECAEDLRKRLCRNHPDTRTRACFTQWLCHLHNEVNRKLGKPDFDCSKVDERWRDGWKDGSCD
# HNF4A DNA FP: change in binding of human HNF4 alpha to DNA; HNF4a-FITC DNA binding, fluorescence polarization, 1 h; activity change, % at 10 µM; AID 1224865; hit rate 0.3% among 360,000; P41235; in the data active = activity change above about 30%, passing the limit was not always enough;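 also: controls were the assay level and a saturating level of protein; the project sought stronger binding though the title names inhibitors; some compounds called inactive have numbers as strong as hits; positive values seem to mean higher polarization but the record does not say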
# Target sequence (P41235 whole entry, looked up): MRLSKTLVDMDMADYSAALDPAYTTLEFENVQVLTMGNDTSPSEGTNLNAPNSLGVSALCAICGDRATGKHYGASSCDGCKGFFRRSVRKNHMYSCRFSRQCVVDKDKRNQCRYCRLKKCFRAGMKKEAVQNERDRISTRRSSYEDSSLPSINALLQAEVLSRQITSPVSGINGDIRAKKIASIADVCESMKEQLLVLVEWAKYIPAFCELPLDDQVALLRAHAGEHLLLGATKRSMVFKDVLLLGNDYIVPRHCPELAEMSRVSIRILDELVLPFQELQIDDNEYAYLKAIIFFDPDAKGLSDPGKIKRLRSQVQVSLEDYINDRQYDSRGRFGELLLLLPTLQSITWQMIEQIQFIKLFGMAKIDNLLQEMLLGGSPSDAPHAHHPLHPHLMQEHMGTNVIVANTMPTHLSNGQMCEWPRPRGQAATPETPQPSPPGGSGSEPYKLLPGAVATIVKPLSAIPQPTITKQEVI
# UCH37 DUB inh: blocks the human deubiquitinase UCH37; Q9Y5K5; AID 588478; inhibition, % (concentration not given with the values); purified proteasome/UCH37, Ub-AMC cleavage fluorescence; hit rate 0.33% among 330,000;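 active = mean of two replicates above 20%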;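 also: 0% = compound-free wells with enzyme and 100% = wells lacking proteasome; stock transfer was 100 nL into about 20 µL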
#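 Schedule: 30 min plus 25 min, room temperature / Material: human UCH37 within purified proteasomes / Technique: AMC fluorescence intensity at 355/460 nm / Buffer or medium: pH 7.4 Tris-HCl (50 mM) with ovalbumin, ATP-MgCl2, DTT / Controls: wells without proteasome as full block, compound-free enzyme plus substrate as uninhibited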
# E coli growth: inhibitors of Escherichia coli growth. OD600, 23 h; stronger effect = lower value. OD600 absorbance (test concentration not listed). hit rate 0.21% among 330,000;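 active = OD600 absorbance below the run mean of sample wells minus 3.6 SD, in any replicate, cut at about 0.56 in these data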;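 also: stock transfer was 300 nL into about 60 µL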
# Ecoli rRNA inh: inhibits bacterial ribosomal RNA function over humanized ribosomes; hit rate 1.6% among 350,000; E. coli WT GFP vs humanized-ribosome RFP mutants, fluorescence, 24 h; stronger effect = lower value; DMSO median 0, no signal -100; GFP signal change (wild-type ribosome), % (no concentration beside the values);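 active = significant combined selectivity score with lowered wild-type GFP, culture density cut under 30%, mutant RFP and density less affected; inactive = any of these conditions unmet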; also: one replicate is shown; some compounds called inactive have numbers as strong as hits
# Beta2AR agonist: activates human beta-2 adrenergic receptor causing internalization | Am2.2-beta2AR cells, FAP receptor internalization, flow cytometry; reference of the scale not given here | response, % (no concentration beside the values) | P07550 | AID 504454 | hit rate 0.43% among 340,000;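 active = response above a set limit, near 3 SD of response in nonfluorescent compounds, cut at about 42% in these data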;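 also: stock transfer was 100 nL into about 11 µL; a reference agonist was the positive control; negative values mostly stem from fluorescent compounds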
# Ecoli rRNA inh OD600: recorded beside Ecoli rRNA inh, whose call it bears; OD600 change, %; measured here: OD600 growth;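 optical density of the mix in the first replicate; 0 = DMSO median and -100 = no signal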
# Ecoli rRNA inh RFP: recorded beside Ecoli rRNA inh, whose call it bears; RFP signal change, %; measured here: RFP humanized mutant strains;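 first replicate; 0 = DMSO median and -100 = no signal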
# The depositor's hits bear a star; i = inactive; · = not tested or not shown. Not all compounds are listed. The share of hits here may be higher or lower than overall.
# Below each compound: ALR inh	Ecoli rRNA inh OD600	E coli growth	HNF4A DNA FP	Beta2AR agonist	Ecoli rRNA inh	FGF22 binding	UCH37 DUB inh	Ecoli rRNA inh RFP
> CCOc1cc(/C=N/NC(=O)c2ccncc2)ccc1OC(=O)c1ccccc1
 : -5	10	·	4.7	6	-7	i	·	-2.0
> CCc1nc2oc3ccccc3c(=O)c2c(=O)n1Cc1ccccc1
 : ·	·	0.69	3.0	1	·	·	3.1	·
> Cc1ccc(-c2ccccc2)n1-c1ccc(C(=O)O)cc1
 : 23	-24	0.71	-2.3	7	-15	i	0.0	-8.7
> Cc1ncc(CN2CCC(n3nccc3NC(=O)c3ccccc3)CC2)s1
 : 0	11	0.71	-0.7	-9	15	i	1.5	1.2
> COc1ccc(CN(CC2CCC(C(=O)O)CC2)C(=S)Nc2cccc(C)c2)cc1 (stereo not drawn)
 : 1	-2	0.72	3.7	5	4	i	3.1	0.0
> COc1cc(C(=O)NCCCN2CCCC2=O)cc(Br)c1OCc1ccccc1
 : 26	·	0.67	0.5	0	·	i	2.7	·
> N#CCCn1cc(/C=N/O)c(-c2ccc(Cl)cc2)n1
 : 0	·	·	0.4	1	·	·	·	·
> CCOc1ccc(C(=O)NCCN2CCCCC2)c(OCC)c1
 : -24	1	0.62	0.2	0	3	i	-0.5	-1.7
> CC(C)N1CCN(Cc2ccccc2-c2ccco2)CC1CCO (stereo not drawn)
 : -10	7	0.71	-0.4	4	10	i	4.4	0.8
> OCCN1CCN(C(=S)c2ccc(-c3ccccc3)cc2)CC1
 : -4	-14	0.67	4.5	-10	-13	i	6.5	-1.2

# Some of the entries so far, with values ahead of the structure:
ALR inh | Ecoli rRNA inh OD600 | E coli growth | HNF4A DNA FP | Beta2AR agonist | Ecoli rRNA inh | FGF22 binding | UCH37 DUB inh | Ecoli rRNA inh RFP | Structure
0 | 11 | 0.71 | -0.7 | -9 | 15 | i | 1.5 | 1.2 | Cc1ncc(CN2CCC(n3nccc3NC(=O)c3ccccc3)CC2)s1
1 | -2 | 0.72 | 3.7 | 5 | 4 | i | 3.1 | 0.0 | COc1ccc(CN(CC2CCC(C(=O)O)CC2)C(=S)Nc2cccc(C)c2)cc1 (stereo not drawn)
26 | · | 0.67 | 0.5 | 0 | · | i | 2.7 | · | COc1cc(C(=O)NCCCN2CCCC2=O)cc(Br)c1OCc1ccccc1
0 | · | · | 0.4 | 1 | · | · | · | · | N#CCCn1cc(/C=N/O)c(-c2ccc(Cl)cc2)n1
-24 | 1 | 0.62 | 0.2 | 0 | 3 | i | -0.5 | -1.7 | CCOc1ccc(C(=O)NCCN2CCCCC2)c(OCC)c1
-10 | 7 | 0.71 | -0.4 | 4 | 10 | i | 4.4 | 0.8 | CC(C)N1CCN(Cc2ccccc2-c2ccco2)CC1CCO (stereo not drawn)

# Next structures
# Below each compound: ALR inh	Ecoli rRNA inh OD600	E coli growth	HNF4A DNA FP	Beta2AR agonist	Ecoli rRNA inh	FGF22 binding	UCH37 DUB inh	Ecoli rRNA inh RFP
> Nc1nc(SCC(=O)Nc2ccccc2)[nH]c(=O)c1-c1ccccc1
 : -3	16	0.66	-0.8	0	-3	i	2.7	-6.0
> O=Nc1c(O)n(Cc2ccc(Cl)cc2)c2ccccc12
 : -1	·	0.65	-0.2	-4	·	·	2.9	·
> Cc1ccc(OCC(=O)N2CCN(C(=O)c3cccc(F)c3)CC2)cc1
 : -7	-3	0.7	0.6	-1	2	i	3.6	-2.0
> CCOC(=O)c1cc(CC)sc1NC(=O)COC(=O)C1CCC1
 : 3	-9	0.68	0.0	4	-5	i	1.4	-8.6
> COc1ccc(C(=O)CC(=O)C(=O)Nc2ccc(OC)c(Cl)c2)cc1
 : -31	6	0.65	1.9	9	-1	i	5.7	2.8
> O=C(NCC(c1ccco1)N1CCc2ccccc2C1)C(=O)Nc1ccc(F)cc1F (stereo not drawn)
 : -6	-15	0.66	0.1	0	0	i	-0.1	5.2
> CC1C[N+](=C2C=C(N3CCOCC3)CC(C)(C)C2)CC(C)O1 (stereo not drawn)
 : -1	6	0.7	1.7	1	11	i	14	-2.0
> c1ccc(Oc2ccc(-c3cc(NCCc4cccnc4)n4nccc4n3)cc2)cc1
 : ·	13	·	-0.2	·	8	i	·	6.2
> O=C(CNC(=O)c1ccccn1)N=Nc1c(O)[nH]c2ccccc12
 : ·	10	0.66	-2.3	8	4	i	8.3	-1.5
> CN(C(=O)c1cccc(NC(=O)Cc2ccc(NC(=O)C3CCN(C(=O)CCc4ccccc4)CC3)cc2)c1)C1CCCCC1
 : ·	-13	0.72	1.1	5	-15	i	2.8	2.2
> CCOc1ccc(Cl)cc1/C=N/NC(=O)c1ccccc1
 : 0	-5	·	0.4	-8	10	i	·	-5.4
> CCn1ccnc1CN(C)Cc1nc(Cc2cccc(C(F)(F)F)c2)no1
 : 1	3	0.64	0.2	4	5	i	1.2	1.6
> CCC1CCCCN1Cc1nc2c(c(=O)n(C)c(=O)n2C)n1CCC(C)C (stereo not drawn)
 : -15	7	0.75	-0.1	-2	1	i	4.2	4.0
> CCOn1c(=O)c(=O)n(OC)c2ccccc21
 : -18	9	0.67	2.2	-3	15	i	3.0	2.5
> CC(=O)N1c2ccc(S(=O)(=O)NCCC(=O)Nc3ncccc3C)cc2CC1C (stereo not drawn)
 : -3	-2	0.7	-2.2	1	-5	i	1.5	-2.9
> CC(C)Cn1c(N)c(C(=O)CSc2nc3ccccc3n2C)c(=O)n(C)c1=O
 : -3	·	0.68	48*	-12	·	·	1.2	·
> Cc1ccc(C(C)NC(=O)Cn2nc(C)c([N+](=O)[O-])c2C)cc1 (stereo not drawn)
 : -2	·	·	0.2	-5	·	·	5.3	·
> CCOC(=O)c1nnn(CC(=O)Nc2cccc(Cl)c2C)c1C(=O)OCC
 : -8	·	0.68	3.5	70*	·	·	-1.3	·
> Cc1cc(C(=O)CSc2nc(N)cc(=O)[nH]2)c(C)n1CCc1ccc(F)cc1
 : 2	·	0.74	1.5	11	·	·	0.3	·
> O=C(C1=C[C@H](c2ccc(C(F)(F)F)cc2)C[C@H](OCCCCO)O1)N1CCN(Cc2ccccc2)CC1
 : 4	0	·	-1.7	-2	3	i	2.0	6.1
> C=CCOc1ccc(/C=C2\N=C(C)OC2=O)cc1OC
 : -4	·	0.65	4.0	-1	·	i	1.5	·
> CCC(=O)N1CCc2cc(S(=O)(=O)NC(C(=O)N3CCc4ccccc4C3)C(C)C)ccc21 (stereo not drawn)
 : -7	·	0.72	6.9	-7	·	·	1.1	·
> CCOC(=O)N1CCN(C(=O)CSCc2ccc(Cl)cc2)CC1
 : ·	·	0.7	2.6	-12	·	·	2.5	·
> CC(C)(C)[C@@H]1COC(=O)[C@@H](NC(=O)OCC2c3ccccc3-c3ccccc32)C/C=C\C[C@@H](CC(=O)NCCO)C(=O)N1
 : -3	6	·	-2.1	3	10	i	3.5	5.7
> Cc1ccccc1C(=O)N1CCC(C(=O)Nc2ccccc2Cl)CC1
 : 7	9	0.71	3.0	-4	3	i	-1.9	3.0
> O=C(Nc1cccs1)N1CCN(c2ncccn2)CC1
 : 15	5	0.64	2.0	-16	-3	i	1.1	0.8
> CCC(=O)c1ccc(OCC(=O)OCC(=O)Nc2ccc(C)c(S(=O)(=O)N3CCCCC3)c2)cc1
 : ·	-14	0.7	2.5	1	-1	i	-0.6	-2.2
> COc1cccc(/C=C/C(=O)OCC(=O)N(C)CC(=O)Nc2ccccc2Cl)c1OC
 : -2	-20	0.68	-1.7	3	-5	i	3.8	1.9
> CC1(C)[C@H]2CC[C@]1(C)[C@@H](OC(=O)C[N+]1(C)CCOCC1)C2
 : -11	10	0.71	-0.7	4	10	i	4.2	0.5
> COc1ccc(-n2cnnc2SCC(=O)Nc2cc(C)on2)cc1
 : -6	15	0.59	1.7	-3	6	i	1.9	1.2
> O=C(CSc1n[nH]c(C2CCCC2)n1)NC1CCCC1
 : 7	·	0.69	-1.8	-1	·	·	1.5	·
> CC(C)CCSc1nc2ccccc2[nH]1
 : 36	-7	0.64	-2.2	-16	-8	i	4.9	-7.1
> COc1cc(C(=O)N2CCCCC2c2cc(C(=O)Nc3ccccc3)no2)cc(OC)c1C (stereo not drawn)
 : ·	-3	·	-1.8	·	4	i	·	5.5
> CC(=N)c1c(O)c2ccccc2oc1=O
 : -1	6	0.67	-0.3	-1	-1	i	0.4	6.6
> CCC(=O)NC(c1cccs1)c1cc([N+](=O)[O-])c2cccnc2c1O (stereo not drawn)
 : ·	-4	0.67	-1.7	8	-7	i	20*	-4.9
> CCNC(=O)c1sccc1-n1cccc1
 : ·	·	0.72	-1.3	5	·	·	3.0	·
> CCC(CC)COC(=O)C1=C(C)NC(=O)NC1c1ccccc1Br (stereo not drawn)
 : ·	-1	0.67	2.0	-9	6	i	3.2	2.1
> CCOC(=O)C1(C)CCN1C(=O)Cc1ccc(OC)cc1 (stereo not drawn)
 : ·	20	·	-4.4	·	11	i	·	-0.5
> CC(=O)c1cccc(NC(=O)C(C)OC(=O)Cc2c[nH]c3ccccc23)c1 (stereo not drawn)
 : 5	-5	0.65	-1.0	-4	-5	i	3.5	3.9
> Cc1ccccc1Cn1cnc2c(nnn2Cc2ccc(F)cc2)c1=O
 : -1	·	0.77	0.4	-7	·	·	3.9	·
> CCCC(c1nnnn1C(C)(C)CC)N(Cc1ccco1)Cc1cc2ccc(OC)cc2[nH]c1=O (stereo not drawn)
 : ·	·	0.73	0.5	16	·	·	·	·
> O=C(COC(=O)c1ccccn1)Nc1cccnc1Cl
 : -6	-1	0.67	-0.1	2	7	i	-1.4	-0.5
> CCN(/C=N/c1sc2c(c1C#N)CC(C)(C)NC2(C)C)CC
 : -2	·	·	1.4	-5	·	·	·	·
> COc1nc(N)nc(NC23CC4CC(CC(C4)C2)C3)n1
 : -13	·	0.66	-0.8	0	·	·	3.5	·
> O=C(Nc1ccc2c(c1)OCCO2)C1CCN(C(=O)c2ccc([N+](=O)[O-])cc2)CC1
 : -13	5	0.72	-3.6	-1	10	i	2.0	-1.3
> COC(=O)c1c(C)cc(O)cc1O
 : -2	·	0.69	-3.2	-1	·	i	3.5	·
> CCCCOC(=O)c1ccc(S(N)(=O)=O)o1
 : -16	·	0.7	3.5	-1	·	·	2.6	·
> Cc1ccc(Cl)cc1-n1c(=O)cc(N2CCN(C(=O)c3ccco3)CC2)[nH]c1=O
 : 14	3	0.59	6.7	-2	3	i	1.3	-4.4
> O=C1C=C(c2ccc3c(c2)OCCO3)C[C@@H](c2ccc(F)cc2)C1
 : -1	-38	0.78	-1.0	-3	-23	i	-1.6	-21
> COc1ccc(OC)c(/C=N/NC(=O)C(=O)N2CCCC2)c1
 : 3	12	·	4.7	0	18	i	·	-6.6

# (more compounds)
# Below each compound: ALR inh	Ecoli rRNA inh OD600	E coli growth	HNF4A DNA FP	Beta2AR agonist	Ecoli rRNA inh	FGF22 binding	UCH37 DUB inh	Ecoli rRNA inh RFP
> Cc1cccc(N(C(=O)c2ccc(CN3CCOCC3)o2)C(C(=O)NC(C)(C)C)c2ccc(F)cc2)c1 (stereo not drawn)
 : -3	·	0.76	2.6	-5	·	·	-2.5	·
> COCCn1c(SCC(=O)NC2CCCC2)nnc1-c1ccco1
 : -16	17	0.71	-1.4	-6	10	i	2.1	1.5
> Cc1ccc(S(=O)(=O)n2nc(OC(=O)c3ccccc3F)cc2N)cc1
 : 16	9	0.68	-1.8	-3	-1	i	-4.4	-4.2
> CCOC(=O)C(c1ccccc1)C(Nc1ccc(Cl)c(Cl)c1)c1ccccn1 (stereo not drawn)
 : -2	2	0.7	2.5	-3	15	i	4.7	0.3
> CCS(=O)(=O)Nc1ccc(C(=O)OC)cc1
 : -1	·	0.73	2.6	-11	·	·	1.4	·
> COc1ccc(NC(=O)CCN2CCCCCC2)cc1
 : -5	·	0.75	-1.2	10	·	·	-1.0	·

# High-throughput results (PubChem BioAssay)
